# A1 inh – inhibitors of the anti-apoptotic protein A1, read as caspase activation. caspase activation, % (test concentration not listed). MEF A1-2A-BIM cells, Caspase-Glo 3/7 luminescence, 3 h; percent of clofoctol response, vehicle zero. actives 0.066% (n = 330,000);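 active = over half of replicate activation scores above 10%, or exactly half above 10 with the replicate mean above 10; inconclusive = replicate mean below 10 yet half the replicates above 10; inactive = over half of replicates below 10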;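 also: wells of about 30 µL received 50 nL stock; many hits fall short of the cut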
# RanGTP-Imp inh – disruptors of Ran-importin-beta complex formation – biochemical, FRET, CFP-Ran, YFP-importin-beta, homogeneous, primary screen. actives 1.1% (n = 300,000). inhibition, % (no concentration beside the values). cell-free CFP-Ran/YFP-importin-beta FRET ratio;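 active = most replicates above 15%; inconclusive = exactly half above 15%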;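 also: 0% = DMSO wells and 100% = Ran loaded with GDP instead of GTP; wells of about 40 µL received 100 nL stock; the first replicate is given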
# UCH37 inh – blocks the human deubiquitinase UCH37. Q9Y5K5. purified proteasome/UCH37, Ub-AMC cleavage fluorescence. actives 0.33% (n = 330,000). AID 588478. inhibition, % (no concentration beside the values);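 active = mean of two replicates above 20%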;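 also: 0% = compound-free wells with enzyme and 100% = wells lacking proteasome; stock transfer was 100 nL into about 20 µL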
# Target sequence (Q9Y5K5 whole entry, looked up): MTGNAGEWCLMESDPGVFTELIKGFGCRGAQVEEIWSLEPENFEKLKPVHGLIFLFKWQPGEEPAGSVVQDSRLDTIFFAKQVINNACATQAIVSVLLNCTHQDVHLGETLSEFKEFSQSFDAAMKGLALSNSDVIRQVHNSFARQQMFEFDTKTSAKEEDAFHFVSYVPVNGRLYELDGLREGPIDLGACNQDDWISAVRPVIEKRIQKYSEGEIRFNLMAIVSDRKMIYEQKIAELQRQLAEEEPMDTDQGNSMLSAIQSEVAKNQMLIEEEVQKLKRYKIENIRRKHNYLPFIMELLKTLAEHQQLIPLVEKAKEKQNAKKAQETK
#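 Reagent: Ub-AMC substrate; assay system: Proteasome-associated human UCH37 deubiquitinase; controls: no-proteasome and no-compound wells; read-out: % inhibition of Ub-AMC cleavage fluorescence; timing: 30 min preincubation with enzyme, 25 min cleavage at room temperature; signal: AMC fluorescence from Ub-AMC cleavage, excitation 355 nm, emission 460 nm; buffer or medium: Tris-HCl pH 7.4 plus ovalbumin, ATP-MgCl2, DTT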
# T cruzi inh – blocks replication of Trypanosoma cruzi | T. cruzi beta-gal in NIH3T3, luminescence, 90 h | actives 1.4% (n = 300,000) | AID 1885 | inhibition, % (no concentration beside the values);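 active = mean inhibition across valid replicates above about 55%, limit read from the data; inconclusive = mean below that limit but half or more replicates reach it; inactive = mean below it, under half of replicates reach it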;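 also: signal also drops with host cell toxicity which is not excluded here; 0% = plate median of DMSO wells and 100% = zero luminescence signal; higher percent means less beta-gal luminescence so fewer parasites; stock transfer was 50 nL into about 50 µL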
# B2AR ag – activates human beta-2 adrenergic receptor causing internalization. P07550. Am2.2-beta2AR cells, FAP receptor internalization, flow cytometry; reference of the scale not given here. response, % (no concentration beside the values). actives 0.43% (n = 340,000);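 active = response above a set limit, near 3 SD of response in nonfluorescent compounds, cut at about 42% in these data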;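 also: stock transfer was 100 nL into about 11 µL; a reference agonist was the positive control; negative values mostly stem from fluorescent compounds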
# Target sequence (P07550 whole entry, looked up): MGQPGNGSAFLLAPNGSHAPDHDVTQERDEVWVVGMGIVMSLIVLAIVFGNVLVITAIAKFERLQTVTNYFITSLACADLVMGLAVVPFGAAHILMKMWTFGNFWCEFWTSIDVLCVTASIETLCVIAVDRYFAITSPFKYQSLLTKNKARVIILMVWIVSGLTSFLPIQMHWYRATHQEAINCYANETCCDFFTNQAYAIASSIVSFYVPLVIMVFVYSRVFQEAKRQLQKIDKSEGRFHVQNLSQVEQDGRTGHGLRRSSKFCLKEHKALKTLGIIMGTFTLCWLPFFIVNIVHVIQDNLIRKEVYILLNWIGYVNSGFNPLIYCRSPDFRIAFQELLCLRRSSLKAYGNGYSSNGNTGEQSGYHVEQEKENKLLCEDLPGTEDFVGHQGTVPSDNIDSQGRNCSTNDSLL
# Calb FLC – affects C. albicans growth with fluconazole. C. albicans CaCi-2 (fluconazole-resistant clinical isolate) + fluconazole, Alamar Blue growth, 48 h. actives 0.57% (n = 300,000). AID 1979. growth inhibition, % (no concentration beside the values);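 active = most replicates above 75%; inconclusive = exactly half above 75%; inactive = most below 75%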;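 also: all wells also contain fluconazole at 8 µg/ml as a sub-toxic cotreatment; 0% = median of DMSO wells and 100% = median of geldanamycin control wells; wells of about 8 µL received 7.5 nL stock; the first replicate is given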
# Beta apoptosis – beta cell apoptosis inhibition; INS-1E cytokine-induced death, ATP luminescence, 48 h; percent of positive-control rescue, neutral wells zero; protection from apoptosis, % (no concentration beside the values); actives 0.8% (n = 300,000); AID 435005;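 active = all replicates at 75% or more, or half of them and the mean; inconclusive = half reach 75% but not the mean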;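 also: 0% = cytokine-treated negative control wells and 100% = positive control rescue; higher means more ATP so stronger rescue from cytokine killing; wells of about 40 µL received 100 nL stock; the first replicate is given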
# LANA-H2A inh – blocks KSHV LANA binding to histone H2A/H2B; Q9QR71; cell-free LANA-H2A/H2B peptide, fluorescence polarization; inhibition, % (test concentration not listed); actives 0.6% (n = 320,000); AID 2629; in the data active = inhibition mostly above about 10%, no sharp cut-off; inactive = mostly below about 6.7%;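 also: stock transfer was 7.5 nL into about 10 µL; 0% = median of vehicle wells and 100% = median of positive control wells; one replicate is shown; the record names a cut of 25% in any replicate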
# * marks the source's active call; other numbers are inactive results; i = inactive; u = inconclusive; x = not tested or not shown. Random draw from the library; overall some 4.3% were active at least once.
SMILES,A1 inh,RanGTP-Imp inh,UCH37 inh,T cruzi inh,B2AR ag,Calb FLC,Beta apoptosis,LANA-H2A inh
CC(=O)c1ccc(S(=O)(=O)N(C)CC(=O)NCc2ccco2)cc1,-0.4,x,4.7,x,-7,x,-5,0.6
COC(=O)CN1CCN(C(=O)c2ccco2)CC1,0.1,4.8,1.3,-9,-5,16,x,-3.2
CCOC(=O)N1CCN(C(=O)c2ccc(OCC)cc2)CC1,-0.7,-0.8,4.1,-13,0,16,2,4.3
COc1ccc(-c2cnc3n2CCCCC3)cc1,-0.4,-1.7,4.2,-6,8,4,0,0.5
COc1ccc(C(=O)COC(=O)CCN2C(=O)C3C4CCC(C4)C3C2=O)cc1 (stereo not given),0.6,1.0,4.3,-13,-1,-11,8,-3.6
COc1ccc(CNc2nc3c(c(=O)n(Cc4ccc(F)cc4)c(=O)n3C)n2C)cc1,0.3,-1.5,5.0,-13,-9,21,10,-1.8
COC(=O)c1ccccc1NC(=O)N1CCN(S(=O)(=O)c2ccc(Cl)cc2)CC1,-0.2,-3.2,4.0,16,-10,-21,0,8.9
O=C(O)c1cc(S(=O)(=O)NCCOc2ccccc2)ccc1Cl,-0.6,x,3.7,x,-8,x,0,3.2
O=[N+]([O-])c1cc(-c2csc(NC(CO)c3nc4ccccc4n3CCOCCO)n2)ccc1Cl (stereo not given),-1.1,-2.4,7.0,-1,1,12,-1,-0.3
COc1ccc(C(=O)Nc2cc(C(=O)c3ccccc3)c(C)oc2=O)cc1,-1.2,-14,2.3,-41,-4,-1,x,-1.8
O=C(NCC(=O)N1CC(O)CC1C(=O)N1CC(O)CC1C(=O)OCc1ccccc1)OCc1ccccc1 (stereo not given),u,-1.3,1.7,-2,-6,-6,-5,3.0
O=C1CSC(=S)N1c1ccc(O)cc1,0.7,7.1,5.2,-14,9,26,-5,-10
O=C(Nc1cc(C(F)(F)F)ccc1Cl)c1ccc(NC(=O)C(F)(F)F)cc1,-0.9,-1.0,-2.8,18,24,-32,-12,-2.6
CC(C)C(=O)Nc1ccc2c(c1)C(=O)NC2=O,1.1,0.7,i,4,-15,-11,x,-0.1
CC1CCc2cc(F)ccc2N1C(=O)C1(C)CC1(Cl)Cl (stereo not given),-0.6,-2.1,0.4,2,7,-17,-13,1.6
COC(=O)c1cc(S(=O)(=O)NCc2ccccc2)c[nH]1,0.9,-4.0,4.8,-12,-2,0,3,-4.5
COc1ccc(NC(=O)CN2C(=O)c3ccccc3S2(=O)=O)cc1OC,0.4,2.6,3.1,-4,-3,5,0,1.8
CC(=O)c1ccc(N(C(=O)CNC(=O)c2cccs2)C(C(=O)NCC2CCCO2)c2ccccc2)cc1 (stereo not given),0.5,0.8,-1.0,-11,-9,-1,-7,-2.0
CC(=O)c1cccc(OCc2cc(C(=O)N(C)CCC3CCOCC3)no2)c1,-0.1,3.7,6.0,4,4,0,1,-0.7
Cc1ccc(NCc2nnc(SCC(=O)Nc3cc(C)on3)n2C)cc1,2.8,2.3,1.5,-10,-5,2,0,-4.7
C/C(=C\c1cccc(Br)c1)C(=O)c1c(C)cc(C)[nH]c1=O,0.8,-0.2,2.8,16,-3,-1,-15,1.3
O=c1cc(CN2CCN(c3ccccc3F)CC2)c2cc3c(cc2o1)CCCC3,-0.2,-1.8,4.2,6,-6,10,-2,4.2
C#Cc1ccc([C@H]2C=C(C(=O)OCC=C)O[C@@H](OCCCCO)C2)cc1,-1.5,-2.5,0.1,8,3,-11,-5,-6.1
NS(=O)(=O)c1ccc(CCNC(=O)c2nc(CS(=O)(=O)c3ccc(Cl)cc3)no2)cc1,0.1,-1.1,0.0,-7,-3,-3,x,0.6
CSc1nc(Oc2ccc3ccccc3c2)c2ccccc2n1,0.0,-4.2,-1.4,-1,-12,-6,6,0.1
COc1ccc2cc(CN(CCc3ccccc3)Cc3nnnn3Cc3ccco3)c(=O)[nH]c2c1,-0.2,5.5,-0.4,49,-8,3,10,-7.4
CC(C)C(NS(=O)(=O)c1cccs1)C(=O)NCCN1CCN(c2ccccc2)CC1 (stereo not given),0.5,-2.0,1.1,-2,-1,2,-5,-1.1
COc1ccc(C2C(C(=O)N3CCOCC3)CCC(=O)N2c2cc(OC)c(OC)c(OC)c2)cc1 (stereo not given),0.6,0.7,1.6,-2,-2,u,-5,1.3
CC1Cc2ccccc2N1C(=O)CSc1nc2ccccc2n1CC(=O)N1CCOCC1 (stereo not given),0.8,0.3,0.9,12,1,-5,-6,5.7
Cc1ccc(C)c(/C=N/n2cc(-c3ccccc3)[nH]c2=S)c1,1.1,-0.9,x,40,2,-4,7,-1.6
CCCCOC(=O)c1ccc(OC(=O)N2CCOCC2)cc1,0.8,-1.3,1.9,4,-3,-10,2,-6.2
CC(Oc1ccccc1)C(=O)OCC(=O)N1CC(=O)Nc2ccccc21 (stereo not given),-0.6,5.6,2.9,-3,8,15,-5,-4.3
CCOc1ccc(CN2CCN(Cc3cccn3-c3cccnc3)CC2CCO)cc1 (stereo not given),0.4,-5.6,-0.2,60*,-14,-11,-6,3.8
Cc1ccc(CS(=O)(=O)CC(C)(O)c2ccccc2)cc1 (stereo not given),0.1,0.2,3.3,-15,-2,0,-1,1.3
Cc1ccc(NC(=O)/C(=C\c2ccc3c(c2)OCO3)NC(=O)c2ccco2)cc1,-0.1,5.3,6.7,10,0,2,-7,7.0
Cc1ccsc1/C=C1/SC(=O)N(CC(=O)N2CCOCC2)C1=O,-0.2,13,8.8,-26,-9,0,-34,-2.4
COc1cccc(-c2nn(C)c3sc(C(=O)NCc4ccccn4)cc23)c1,1.3,2.9,-62,7,4,2,-13,-1.4
CC(C)(C)OC(=O)NCCCC[C@H](NC(=O)c1[nH]cnc1C(=O)Nc1ccc(Cl)cc1)C(=O)OC(C)(C)C,1.0,3.6,-1.9,49,7,13,32,-1.8
O=C1C(Cl)=C(N2CCCCC2)C(=O)N1c1ccccc1,0.0,2.6,-0.3,-6,-4,-14,-2,-0.2
CC1CN(C(=O)COc2coc(CN3CCc4ccccc4C3)cc2=O)CC(C)O1 (stereo not given),0.7,3.1,1.4,-10,2,5,x,4.0

# Reprinted from the part before: two compounds, followed by the next part.
SMILES,A1 inh,RanGTP-Imp inh,UCH37 inh,T cruzi inh,B2AR ag,Calb FLC,Beta apoptosis,LANA-H2A inh
O=C1C(Cl)=C(N2CCCCC2)C(=O)N1c1ccccc1,0.0,2.6,-0.3,-6,-4,-14,-2,-0.2
CC1CN(C(=O)COc2coc(CN3CCc4ccccc4C3)cc2=O)CC(C)O1 (stereo not given),0.7,3.1,1.4,-10,2,5,x,4.0
COC(=O)c1ccc(/C=C2\SC(=S)N(CCCC(=O)NCCCN3CCOCC3)C2=O)cc1,-0.3,-3.2,6.4,13,3,0,-13,-4.4
COc1ccccc1C1CCN(c2ccc([N+](=O)[O-])cn2)CC1,0.2,-0.4,3.9,12,7,-13,3,4.7
CC(=O)NC1C(=O)N(CCN2CCOCC2)c2ccc(F)cc21 (stereo not given),-0.8,1.0,9.2,-10,-3,1,-1,0.0
Cc1ccc(/C=N/NC(=O)c2ccoc2C)o1,-4.5,3.8,x,-22,-14,-5,0,-6.5
CCn1c(COc2ccccc2C)nnc1SCc1nc2ccccc2c(=O)[nH]1,0.8,0.4,3.0,22,x,-2,-4,2.0
Cc1cc(C)n(-c2cc(N3CCN(C(=O)c4ccc(C(C)(C)C)cc4)CC3)ccc2[N+](=O)[O-])n1,1.0,-2.2,4.3,40,12,-6,0,-2.7
COc1ccc(-c2ccc(SCC(=O)N3CCOCC3)nn2)cc1,-1.0,-41,3.8,-10,6,-17,4,-6.1
Fc1ccc(NCc2nnc3n2CCCCC3)cc1,0.5,-5.8,4.2,-12,0,-8,2,-8.8
C[C@@]12C(=O)Nc3ccc(F)cc3C(=O)N1[C@H]1c3cc(Cl)ccc3OC[C@@H]1[C@@H]2c1ccccc1,0.4,x,x,x,4,x,16,-8.8
O=C(Nc1ccccc1)c1ccccc1NC(=O)C(F)(F)F,-2.5,-1.3,0.4,-3,0,u,-3,2.3
CC(C)(Cc1ccccc1)/[N+]([O-])=C\c1ccccc1,u,-1.1,-0.6,-21,-8,1,1,4.5
COc1ccc(CCNC(=O)c2ccccc2OCc2c(C)noc2C)cc1,0.5,x,1.5,x,-6,x,-5,-7.7
Cn1nnnc1SCC(=O)Nc1ccc(C(=O)N2CCN(Cc3ccccc3F)CC2)cc1,-0.4,x,1.0,x,0,x,-3,-371
Cn1cc([N+](=O)[O-])c(C(=O)N/N=C/c2cc3c(cc2Br)OCO3)n1,-1.0,-1.1,x,-13,-3,15,-1,-4.9
CCOC(=O)C1CCN(Cc2nc(-c3ccc(OC)c(OC)c3)no2)CC1,0.1,4.9,0.8,6,-5,-2,1,3.2
O=C(O)CSc1nc2sc3c(c2c(=O)n1Cc1ccccc1)CCCCC3,1.7,5.7,0.4,-9,1,19,0,1.8
Cc1ccccc1CNC(=O)CCCC(=O)n1nc(C)c2ccccc21,-1.0,5.1,2.7,-8,0,2,0,8.0
CCn1nc(C(=O)OCc2c(C)noc2C)c2ccccc2c1=O,0.1,-1.5,-0.9,-3,-1,-6,0,-0.5
O=c1oc2ccccc2cc1-c1csc(Nc2nc3c(F)cccc3s2)n1,-1.3,-7.4,x,19,18,25,x,-3.9
Cc1ccc(CSc2ccc3nnc(-c4ccccn4)n3n2)cc1,-0.6,-1.6,x,-1,2,-30,6,-4.3
COC(=O)c1cc(=O)nc2sc(-c3cccs3)nn12,0.9,-1.3,-140,-12,-2,-1,-6,2.5
O=C(CCNC(=O)c1ccco1)Nc1ccc(Cl)c(C(F)(F)F)c1,-0.2,2.6,0.8,37,2,1,0,1.9
Cc1ccc(NC(=O)c2ccc3c(c2)nnn3C)cc1,-0.5,3.1,1.7,-25,2,6,-1,-0.3
Nc1nc(SCc2nc3sc4c(c3c(=O)[nH]2)CCCC4)n[nH]1,0.2,2.5,1.1,18,-9,-7,3,1.4
Cc1cc(C)cc(NC(=O)CSc2nnc(Cn3c(=O)sc4ccccc43)n2C)c1,0.1,x,4.0,x,13,x,-2,-5.0
CS(=O)(=O)N1CCc2cc(C(=O)Nc3ccccc3Cl)ccc21,-0.5,3.3,x,-6,8,3,7,-2.1
CCc1ccc2[nH]c(=O)c(CN(Cc3ccccc3OC)Cc3nnnn3Cc3ccco3)cc2c1,0.1,0.7,3.9,39,13,-3,18,3.0
O=C(CN1C2=NCCN2c2ccccc21)c1cccs1,0.5,0.1,6.1,-11,-13,-18,3,-4.6
Cc1nc(CNS(=O)(=O)c2cc([N+](=O)[O-])ccc2C)cs1,-0.8,-4.2,2.3,-5,-6,-1,-11,0.4
CCCCCCn1c(SCC(C)C)nc2c1c(=O)[nH]c(=O)n2C,-1.1,u,-0.4,25,-8,-7,0,7.3
CCCCCCCC(=O)OC(CN1CCCCCC1)CN1CCCC1=O (stereo not given),-0.7,26,2.8,5,0,-1,-3,-1.4
